Source: PubChem BioAssay
Ecoli growth: blocks Escherichia coli growth | OD600, 23 h; stronger effect = lower value | OD600 absorbance (test concentration not listed) | hit rate 0.21% among 330,000;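 active = OD600 absorbance below the run mean of sample wells minus 3.6 SD, in any replicate, cut at about 0.56 in these data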;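 note: stock transfer was 300 nL into about 60 µL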
Starred values were filed as active, the others as inactive; & = joins results of further samples. The list is partial. The share of hits here may be higher or lower than overall.

Ecoli growth,Structure
0.7,Cc1cc(=O)[nH]c(N=NC(=NNc2ccccc2C)c2ccccc2)n1
0.68,CC(=NNC(=O)c1cc(-c2ccc(C)s2)[nH]n1)c1ccco1
0.68,CCN(N=O)C(Cc1ccccc1)CN(N=O)C(Cc1ccccc1)CN(C)N=O (stereo unspecified)
0.68,CN1C(=CC(=O)CSc2nnc(NCc3ccccc3)s2)C(C)(C)c2ccccc21
0.66,O=C(NN=Cc1cc(Cl)cc([N+](=O)[O-])c1O)C(O)(c1ccccc1)c1ccccc1
0.71,COc1cc(C=NNC(=O)c2ccccn2)ccc1OC(=O)c1ccc(Br)cc1
0.71,CC(CC(=O)Nc1ccc(Cl)c(C(F)(F)F)c1)=NNC(=O)c1cccc(O)c1
0.66,CCCCCCCCN1C(CC(=O)OC)c2cc(C(F)(F)F)ccc2S1(=O)=O (stereo unspecified)
0.71,COc1cc(C=NNC(=O)c2ccc3c(c2)OCCO3)cc(Br)c1O
0.69,Cc1cc(=O)[nH]c(NN=Cc2cn(CCC#N)nc2-c2ccccc2)n1
0.67,CCCC1COCCS(=O)(=O)N1Cc1ccccc1 (stereo unspecified)
0.74,CCOC(=O)c1sc(N=CNc2nc(C)c(C(=O)OCC)s2)nc1C

Continuation:
Ecoli growth,Structure
0.71,CC(C)=CCC/C(C)=C/CCC(C)=NO
0.69,O=C(NN=Cc1ccco1)c1cc(C2CC2)[nH]n1
0.65,CC(=NNC(=O)C(c1ccncc1)N1CCOCC1)c1ccc(Br)cc1 (stereo unspecified)
0.66,COc1ccc(C=Nn2cncn2)cc1Cn1cc([N+](=O)[O-])cn1
0.72,O=[N+]([O-])c1cccc(/C=C/C=NNc2nc(N3CCCCC3)nc(N3CCCCC3)n2)c1
0.69,COc1ccc(-c2cc(C3C4C=CCC[C@@]4(C)C(=O)N3Cc3ccccc3)ccc2F)cc1OC (stereo partly specified)
0.66,CC(C)c1ccc(C=NNC(=O)c2ccccc2Cl)cc1
0.68,Cc1ccc(S(=O)(=O)N2CCN(CC(=O)NN=Cc3ccc(O)c(O)c3)CC2)cc1
0.73&0.74,Cc1ccc(NC(=O)CN2C(=O)NC(=Cc3ccco3)C2=O)cc1
0.71,COc1ccccc1NS(=O)(=O)c1cccc(C(=O)NN=Cc2c(C)nn(-c3ccccc3)c2N2CCCC2)c1
0.68,CC1(C)CC(=NNc2ccc([N+](=O)[O-])cc2[N+](=O)[O-])C(C)(C)O1
0.77,Cc1nnc(SCC(=O)NN=Cc2cn(-c3ccccc3)nc2-c2ccccc2)n1-c1ccccc1

Later entries
Ecoli growth,Structure
0.71,O=C(Cc1c(F)cccc1Cl)NN=Cc1cccnc1
0.65,CCOC1OC(C(=O)N2CCN(C)CC2)=CC(C)C1CCCO (stereo unspecified)
0.7,CC(=NNC(=O)c1ccc(OC2OCCOC2Oc2ccc(C(=O)NN=C(C)c3ccncc3)cc2)cc1)c1ccncc1 (stereo unspecified)
0.64,CCCN1CCC(=O)N(C(CSc2ccccc2)Cc2ccccc2)CC1 (stereo unspecified)
0.67,CCOc1cc(CC(=O)NC(CC(C)C)c2ccccc2N2CCCCC2)ccc1C(=O)O (stereo unspecified)
0.7,O=[N+]([O-])c1ccc(C=C2CCC(C3=CCCC3)=C2N2CCOCC2)cc1
0.71,NS(=O)(=O)c1ccc(NN=Cc2ccc(O)c(O)c2O)c([N+](=O)[O-])c1
0.67,O=[N+]([O-])c1ccc(S(=O)(=O)NN=Cc2ccsc2)cc1
0.71,CN1CCN(C=Nc2c(C#N)cnn2Cc2ccccc2)CC1
0.72,CCc1ccc(C=NNC(=O)c2cc(-c3ccccc3OC)nc3ccccc23)s1
0.72,O=C(NCc1ccncc1)C(=O)NN=Cc1cccnc1
0.65,Cc1cc(C)c2c(c1)C(=NNC(=O)c1ccc(O)cc1)CCC2

Continuation:
Ecoli growth,Structure
0.67,COc1ccc(NC(=O)CC(C)=NNC(=O)c2ccncc2)c([N+](=O)[O-])c1
0.67,O=C(CO)NN=Cc1c2ccccc2cc2ccccc12
0.69,CCN1C(=O)C2C(c3ccc(-c4ccc(F)cc4)cc3)N[C@@](C)(C(=O)OC)C2C1=O (stereo partly specified)
0.63,O=C(NN=Cc1cccnc1)c1ccccc1Cl
0.68,C(=NNc1nc2ccccc2s1)c1ccco1
0.77,Clc1ccc(Cn2cc(C=Nn3cnnc3)c3ccccc32)cc1
0.69,Cc1cc(C)n(N=Cc2ccccc2)c(=O)c1C#N
0.68,N#Cc1c(N=Cc2ccco2)sc2c1CCC2
0.66,CCOc1cc(C=NNC(=O)Nc2ccccc2)ccc1O
0.68,COc1ccccc1C=NNC(=O)CC(=O)Nc1ccc(Cl)c(Cl)c1
0.69,Cc1ccccc1-c1cc(C(=O)NN=Cc2cccnc2)c2ccccc2n1
0.69,COc1ccc(C=NNC(=O)c2ccc3ccccc3c2)cc1OS(=O)(=O)c1ccc(NC(C)=O)cc1

3 of the entries above in order of the Ecoli growth value, descending.
Ecoli growth,Structure
0.68,C(=NNc1nc2ccccc2s1)c1ccco1
0.66,CCOc1cc(C=NNC(=O)Nc2ccccc2)ccc1O
0.63,O=C(NN=Cc1cccnc1)c1ccccc1Cl

2 of the compounds above, bar-delimited.
compound | Ecoli growth
COc1ccccc1C=NNC(=O)CC(=O)Nc1ccc(Cl)c(Cl)c1 | 0.68
N#Cc1c(N=Cc2ccco2)sc2c1CCC2 | 0.68

The listing continues:
Ecoli growth,Structure
0.76,O=C(NN=Cc1ccc(OC(F)F)cc1)c1ccc(CSc2nc3ccccc3[nH]2)cc1
0.68,COc1ccc(C2CC(=O)C=C(C=Cc3ccccc3)C2)cc1OC (stereo unspecified)
0.68,O=C1C2C3C=CC(C4CC34)C2C(=O)N1N=Cc1ccc(-c2ccc(F)cc2[N+](=O)[O-])o1 (stereo unspecified)
0.64,Cc1[nH]c2ccccc2c1C=NNC(=O)c1cccc([N+](=O)[O-])c1
0.71,CNC(=S)NN=Cc1cn(CCOc2cccc(OC)c2)c2ccccc12
0.62,COC(=O)c1sc(SC)nc1N
0.66,COc1cccc(C=NNc2ccccc2C(=O)O)c1O
0.71,CC(CC(=O)Nc1ccc(OCc2ccccc2)cc1)=NNC(=O)C(=O)Nc1cccc(C)c1
0.7,CCCCCC(=O)ON=C(C)c1ccn(S(=O)(=O)c2ccccc2)c1
0.64,Cc1ccc(C=NNc2ccccn2)s1
0.64,COc1ccccc1C1C(c2ccc(F)cc2)=NN(c2ccccc2)C1C(=O)N1CCOC1=O (stereo unspecified)
0.66,CC(C)(C)C1CCC(=O)N(C(CC#N)Cc2ccccc2)CC1 (stereo unspecified)

More records
Ecoli growth,Structure
0.61,CCc1ccc(OCC(=O)NN=Cc2ccco2)c([N+](=O)[O-])c1
0.69,C#CCOCCOCCOCCNc1nc(N2CCN(C(=O)C(CCC(=O)O)n3cc(C(N)CCCCN)nn3)CC2)nc(N2CCN(C(=O)C(C(C)O)n3cc(C(N)CCCCN)nn3)CC2)n1 (stereo unspecified)
0.71,C=CCCC(Cc1ccc(F)cc1)C(=O)OCC1CCCN1C(=O)C(CC=C)CC(=O)NCCO (stereo unspecified)
0.68,S=c1[nH]nc(C2CCCCC2)n1N=Cc1ccccc1Br
0.72,CCn1c(C)nc2cc(C(=O)NN=Cc3ccc(O)cc3)ccc21
0.69,Clc1cnc(NN=Cc2ccco2)c(Cl)c1
0.68,COc1cccc(C=NNc2nc(C)cc(=O)[nH]2)c1OC
0.71,COc1ccc(S(=O)(=O)NN=Cc2ccc3c(c2)OCO3)c(OC)c1
0.65,O=C(NN=Cc1cccnc1)c1cccc(NC(=O)c2ccccc2Cl)c1
0.68,CCOC(=O)C1=C(C)N=c2sc(=Cc3ccc(OCC(=O)O)cc3)c(=O)n2C1c1ccc(OC(C)C)cc1 (stereo unspecified)
0.66,COc1ccc(C=NNc2nc3ccccc3[nH]2)cc1OC
0.7,O=C(NN=Cc1ccc(-c2ccccc2)o1)c1ccccc1O

Additional records follow.
Ecoli growth,Structure
0.71,C#CCOCCOCCOCCNc1nc(N2CCN(C(=O)C(CCC(=O)O)n3cc(C(N)C(C)CC)nn3)CC2)nc(N2CCN(C(=O)C(C(C)CC)n3cc(C(N)CC(C)C)nn3)CC2)n1 (stereo unspecified)
0.72,Cc1cc(=O)[nH]c(NN=CC(C)c2ccccc2)n1 (stereo unspecified)
0.67,O=C(CN1CCOCC1)NN=C/C(Br)=C\c1ccccc1
0.65,CCNc1nc(NCC)nc(NN=C(C)c2ccc(OC)cc2)n1
0.67,CCCCCCC(=O)NN=C(C)Cc1ccccc1
0.72,O=C(NN=Cc1ccc(O)c(O)c1)c1cccc(S(=O)(=O)N2CCCCC2)c1
0.66,Cc1onc(-c2c(Cl)cccc2Cl)c1C(=O)ON=C(C#N)c1ccccc1
0.67,CSc1ccc(C=NNc2nc(C)cc(=O)[nH]2)cc1
0.69,COc1cc(C=NNc2nc(C)cc(C)n2)cc(OC)c1OC
0.67,Cc1ccc(N2CC(C(=O)NN=Cc3c(F)cccc3Cl)CC2=O)cc1 (stereo unspecified)
0.71,CSc1ccc(C=NNC(=O)c2cccs2)cc1
0.76,CC(=NNC(=O)C1CCCCC1)c1ccc([N+](=O)[O-])cc1

New compounds follow:
Ecoli growth,Structure
0.69,CCOC(=O)C1C2COc3ccc(C)cc3C2N2C(=O)CN(Cc3ccc(OC)cc3)C(=O)[C@@]12C (stereo partly specified)
0.67,Cc1ccc(N2C(=O)N3C(c4ccc(Br)cc4)C4C(=O)N(C(C)(C)C)C(=O)C4[C@]3(C)C2=O)cc1 (stereo partly specified)
0.74,COc1ccc(C(=O)Nc2cccc(C(C)=NNC(=O)c3ccc([N+](=O)[O-])c(C)c3)c2)cc1OC
0.65,COc1ccc(C=NNC(=O)c2ccc3c(c2)OCO3)cc1
0.67,COc1ccccc1N1CCN(N=C/C(Br)=C/c2ccccc2)CC1
0.64,Clc1ccc(C=NN2CCN(Cc3ccccc3)CC2)cc1
0.66,COc1ccc(C=NNC(=O)c2cccc(Br)c2)cc1COc1ccccn1
0.69,Cc1ccc(S(=O)(=O)N2C(c3ccc(C(C)C)cc3)CC=C(C(=O)O)C2c2ccccc2F)cc1 (stereo unspecified)
0.66,O=[N+]([O-])c1ccc2c(c1)C(=NO)c1ccccc1-2
0.72,Clc1ccc(C=NNC2=Nc3cccc4cccc2c34)cc1
0.71,Cc1c(O)cccc1C(=O)NC(CSc1ccccc1)C(O)CN1CC2CCCCC2CC1C(=O)NC(C)(C)C (stereo unspecified)
0.64,COc1ccc(C=NNC(=O)c2cc(Br)ccc2O)cc1Cn1cc(Cl)cn1

Next part:
Ecoli growth,Structure
0.68,CC(=O)N1CCN(c2ccc(NC(=S)NC(=O)C=Cc3ccccc3)cc2)CC1
0.67,NC1C(O)OC(CO)C(O)C1O (stereo unspecified)
0.71,CC(=NNC(=O)c1cc(C2CC2)nc2ccccc12)c1ccc(C)s1
0.69,CCC(=NNC(N)=O)c1ccc(OC(F)F)cc1
0.7,COc1cccc(OC)c1C(O)=C(C#N)c1nc2ccccc2[nH]1
0.73,COc1ccc(NS(=O)(=O)c2cccc(C(=O)NN=Cc3cn(-c4ccccc4)nc3-c3ccccc3)c2)cc1
0.69,O=c1c(Cl)c(NN=Cc2ccc(Cl)cc2)cnn1-c1ccccc1
0.68,COCC(=O)NN=Cc1ccc(Sc2nc3ccccc3s2)o1
0.71,O=[N+]([O-])c1ccccc1/C=C/C=Nn1c(-c2ccc(Cl)cc2)n[nH]c1=S
0.67,Cc1ccc(C=Nn2c(-c3cccc(Cl)c3)n[nH]c2=S)o1
0.69,O=C(NN=Cc1ccc(S(=O)(=O)O)o1)c1ccc2c(c1)OCO2
0.65,Cc1nc(NN=Cc2ccccn2)sc1C

Looked up above.
`O=C(NN=Cc1cccnc1)c1cccc(NC(=O)c2ccccc2Cl)c1` @ Ecoli growth = 0.65
`COc1ccccc1C1C(c2ccc(F)cc2)=NN(c2ccccc2)C1C(=O)N1CCOC1=O` (stereo unspecified) @ Ecoli growth = 0.64
`CCc1ccc(C=NNC(=O)c2cc(-c3ccccc3OC)nc3ccccc23)s1` @ Ecoli growth = 0.72

Additional structures:
Ecoli growth,Structure
0.71,Cc1[nH]n(-c2ccccc2)c(=O)c1C=NN(c1ccccc1)c1ccccc1
0.77,COc1cc(C=NNc2ccccc2[N+](=O)[O-])ccc1OC(=O)c1ccccc1F
0.68,COc1ccc(OCC(=O)NN=c2oc3c(OC)cccc3cc2C(N)=O)cc1
0.61,COc1cc2c(c(O)c1OC)-c1c(cc(OC)c(OC)c1O)C(OC(=O)c1ccccc1)[C@@](C)(O)C(C)C2OC(C)=O (stereo partly specified)
0.67,Cc1nn(C)cc1C=Nn1nnnc1N
0.76,Cc1ccc(-c2nn(-c3ccccc3)cc2C=NNC(=O)c2ccc(Br)o2)cc1
0.64,C#CCOCCOCCOCCNc1nc(N2CCN(C(=O)C(CCCCN)n3cc(CCCC)nn3)CC2)nc(N2CCN(C(=O)C(C(C)CC)n3cc(CCCN=C(N)N)nn3)CC2)n1 (stereo unspecified)
0.71,O=C1NCCCC1C(=O)NN=Cc1ccccc1O (stereo unspecified)
0.67,CCNC(=S)NN=C(C)c1cc2ccccc2o1

Six entries out of the list, arranged by SMILES length, ascending:
Ecoli growth,Structure
0.67,CCNC(=S)NN=C(C)c1cc2ccccc2o1
0.71,Cc1[nH]n(-c2ccccc2)c(=O)c1C=NN(c1ccccc1)c1ccccc1
0.76,Cc1ccc(-c2nn(-c3ccccc3)cc2C=NNC(=O)c2ccc(Br)o2)cc1
0.77,COc1cc(C=NNc2ccccc2[N+](=O)[O-])ccc1OC(=O)c1ccccc1F
0.61,COc1cc2c(c(O)c1OC)-c1c(cc(OC)c(OC)c1O)C(OC(=O)c1ccccc1)[C@@](C)(O)C(C)C2OC(C)=O (stereo partly specified)
0.64,C#CCOCCOCCOCCNc1nc(N2CCN(C(=O)C(CCCCN)n3cc(CCCC)nn3)CC2)nc(N2CCN(C(=O)C(C(C)CC)n3cc(CCCN=C(N)N)nn3)CC2)n1 (stereo unspecified)
